Myc binder: binders of human c-Myc; calls only; small molecule microarray, His-c-Myc binding, anti-His fluorescence; hit rate 1.5% among 17,000;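 active = spot fluorescence over background with P-value below 7% in all four replicate spots, showing protein binding; compounds were printed on slides so no solution concentration is given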;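 note: score is binary with 100 for all four spots passing and 0 otherwise; about 2 pmol printed per array spot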
STAT3 SMM: STAT3 (human) binding | Small molecule microarray, His-STAT3 binding, anti-His fluorescence | hit rate 0.2% among 17,000 | calls only;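 active = compounds whose four printed spots each show fluorescence over background unusually high for their array block, chance value under 7%; compounds were printed on slides so no solution concentration is given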;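 note: about 2 pmol printed per array spot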
ID4 SMM: binders of human ID4 protein | small molecule microarray, Flag-ID4 binding, fluorescence F/B | hit rate 1.2% among 31,000 | P47928 | calls only;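 active = spot signal over background at p below 0.07 in all four prints; compounds were printed on slides so no solution concentration is given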;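 note: a binder raises fluorescence above local background on the spot; about 2 pmol printed per array spot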
mut p53 SMM: mutant p53 (human) binding. small molecule microarray binding, anti-GST fluorescence. AID 624136. hit rate 0.4% among 17,000. calls only;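 active = compounds whose four printed spots each glow above background more than chance allows, each with a p-value under 7%; compounds were printed on slides so no solution concentration is given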;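 note: about 2 pmol printed per array spot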
Calls only; i = inactive; . = not tested or not shown; + = active, no number.

Key to letters – A = Myc binder; B = STAT3 SMM; C = ID4 SMM; D = mut p53 SMM
Oc1ccc(/C=C/c2cc(O)cc(O)c2)cc1
  A: i; B: i; C: i; D: i
C[C@@H]1CC[C@]2(C(=O)O[C@@H]3O[C@H](CO[C@@H]4O[C@H](CO)[C@@H](O[C@@H]5O[C@@H](C)[C@H](O)[C@@H](O)[C@H]5O)[C@H](O)[C@H]4O)[C@@H](O)[C@H](O)[C@H]3O)CC[C@]3(C)C(=CCC4[C@@]5(C)C[C@@H](O)[C@H](O)[C@@](C)(CO)C5CC[C@]43C)C2[C@H]1C (stereo partly drawn)
  A: i; B: i; C: .; D: i
COc1ccc(S(=O)(=O)N2c3ccc(Cl)cc3[C@](O)(c3ccccc3Cl)[C@@H]2C(=O)N2CCC[C@H]2C(N)=O)cc1OC
  A: i; B: i; C: i; D: i
CC(C)C1C(=O)N(S(C)(=O)=O)[C@@H]2CCN(C(=O)/C=C/CN3CCCCC3)[C@@H]12 (stereo partly drawn)
  A: i; B: i; C: i; D: i
CC(=O)c1ccc(S(=O)(=O)NC(=O)NC2CCCCC2)cc1
  A: i; B: i; C: i; D: i
Cc1cc(Cn2cnc3c2CC(C(=O)O)N(C(=O)C(c2ccccc2)c2ccccc2)C3)ccc1N(C)C (stereo not drawn)
  A: i; B: i; C: i; D: i
COc1cc2ncnc(Nc3cccc(O)c3)c2cc1OC
  A: i; B: i; C: .; D: i
CN1CCOC(c2ccccc2)c2ccccc2C1 (stereo not drawn)
  A: i; B: i; C: i; D: i
CCCNC(C)C(=O)Nc1c(C)csc1C(=O)OC (stereo not drawn)
  A: i; B: i; C: i; D: i
C[C@]12CCC(=O)C=C1CC[C@@H]1C2CC[C@@]2(C)C1CC[C@@H]2C(=O)CO (stereo partly drawn)
  A: i; B: i; C: i; D: +

Another view of part of the listing above.
CC(=O)c1ccc(S(=O)(=O)NC(=O)NC2CCCCC2)cc1
  Myc binder = i | STAT3 SMM = i | ID4 SMM = i | mut p53 SMM = i

COc1cc2ncnc(Nc3cccc(O)c3)c2cc1OC
  Myc binder = i | STAT3 SMM = i | ID4 SMM = . | mut p53 SMM = i

Cc1cc(Cn2cnc3c2CC(C(=O)O)N(C(=O)C(c2ccccc2)c2ccccc2)C3)ccc1N(C)C (stereo not drawn)
  Myc binder = i | STAT3 SMM = i | ID4 SMM = i | mut p53 SMM = i

One compound at a time, as listed above. Order of values: Myc binder	STAT3 SMM	ID4 SMM	mut p53 SMM
Cc1cc(Cn2cnc3c2CC(C(=O)O)N(C(=O)C(c2ccccc2)c2ccccc2)C3)ccc1N(C)C (stereo not drawn) is listed with i	i	i	i
C[C@]12CCC(=O)C=C1CC[C@@H]1C2CC[C@@]2(C)C1CC[C@@H]2C(=O)CO (stereo partly drawn) is listed with i	i	i	+

Assay outcomes as filed in PubChem BioAssay.

Not all compounds are listed; the hit share may differ from the screen's.
